Screening results as filed in PubChem BioAssay.
TRPML1 inh = qHTS for Inhibitors of the Human Mucolipin Transient Receptor Potential 1 (TRPML1); Mucolipin-1 (Homo sapiens), Q9GZU1; TRPML1-inducible cells, Ca2+ dye fluorescence, FDSS; stronger effect = lower value; inhibition of EC80 agonist-evoked calcium signal; activity change, negative = inhibition, % (test concentration not listed); actives 0.02% (n = 390,000); AID 624415, 2012; in the data active means activity change below about -50%; inconclusive means about -30% to -50%; inactive means above about -30%;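 also: stimulus is agonist 54-4 at its EC80 concentration; % is scaled to controls: 0 for no effect and ±100 for the full control effect; compound concentration not given in the record; the text of the record puts the active cut at -80%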
Target sequence (Q9GZU1 whole entry, looked up): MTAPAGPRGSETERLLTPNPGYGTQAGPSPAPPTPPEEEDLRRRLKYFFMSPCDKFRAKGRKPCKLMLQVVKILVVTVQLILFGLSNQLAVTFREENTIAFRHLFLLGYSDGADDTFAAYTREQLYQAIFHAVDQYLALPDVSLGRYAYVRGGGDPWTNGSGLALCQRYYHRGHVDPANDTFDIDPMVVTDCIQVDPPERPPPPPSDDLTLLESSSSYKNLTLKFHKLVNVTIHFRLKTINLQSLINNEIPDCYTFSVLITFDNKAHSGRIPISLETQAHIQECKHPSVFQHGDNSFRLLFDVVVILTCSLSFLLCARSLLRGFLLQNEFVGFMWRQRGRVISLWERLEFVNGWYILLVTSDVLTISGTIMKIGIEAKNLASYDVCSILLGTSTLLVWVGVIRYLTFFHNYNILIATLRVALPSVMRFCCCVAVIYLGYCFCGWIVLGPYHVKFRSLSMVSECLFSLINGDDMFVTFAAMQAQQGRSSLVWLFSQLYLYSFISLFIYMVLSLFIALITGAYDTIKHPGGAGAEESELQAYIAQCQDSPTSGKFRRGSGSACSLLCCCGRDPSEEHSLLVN
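Calcium fluorescence in TRPML1-DL cells induced overnight with Tet: a 110 s read after compound pin addition, then a 110 s antagonist read after challenge with 54-4 at 4 uM final (EC80).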
PINK1 expr mod = A Quantitative High throughput Screen to Identify Chemical Modulators of PINK1 Expression; actives 0.2% (n = 410,000); PINK1 immunofluorescence, high-content cytometry, 24 h; AID 624263, 2012; Potency, µM (series often up to 76.6 µM), for inactives: top-dose activation (PINK1 increase), usual class: activators; active = well fitted activation curve with a large enough effect; inconclusive = small, poorly fitted or top-dose-only effect; inactive = flat fitted curve, though single readings scatter; cell line not stated here;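 also: potency is read from the fitted curve at half-maximal effect; % of control where 0% means no effect; nearly all actives have a fitted effect of over 65% in size; a mitochondrial uncoupler was the plate control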
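PINK1 protein, normally rapidly degraded, was detected by immunofluorescence after 24 hour compound treatment of a stable cell line. Titration data (5 concentrations) came from laser-scanning cytometry, with CCCP-treated wells as controls.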
TRPML1 agonist = qHTS for Agonists of the Human Mucolipin Transient Receptor Potential 1 (TRPML1); Mucolipin-1 (Homo sapiens), Q9GZU1; TRPML1-expressing cells, Ca2+ dye fluorescence, FDSS; host cell line not named in the record; reference of the full effect not given here; activation, % (test concentration not listed); actives 0.12% (n = 410,000); AID 624414, 2012; in the data active = activation above about 50%; inconclusive = about 30% to 50%; inactive = below about 30%; also: 0% is about no effect; the text of the record puts the active cut at 80%
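Tetracycline-induced TRPML1-DL cells are seeded and incubated overnight before loading with a no-wash Ca2+ dye and quencher. Agonist activity is taken from the 110 s fluorescence read following compound pin-transfer on an FDSS, before EC80 54-4 challenge.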
Six1-Eya2 blk = qHTS Assay for Inhibitors of the Six1/Eya2 Interaction | AlphaScreen GST-Six1/His-Eya2 binding, biochemical; stronger effect = lower value; control for the full effect not named in the record | AID 651725, 2012 | activity change, % (test concentration not listed) | Homeobox protein SIX1 (Homo sapiens) + Protein phosphatase EYA2 (Homo sapiens), … | actives 0.56% (n = 360,000); in the data active = activity change below about -65%; inconclusive = about -30% to -65%; inactive = above about -30%; also: % is scaled to controls: 0 for no effect and ±100 for the full control effect; compound concentration not given in the record
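Homogeneous AlphaScreen proximity assay pairing GST-Six1 with His-tagged Eya2 (added as 5X mix: 250 nM and 500 nM) in 50 mM Tris pH 8.0, 300 mM NaCl, 1 mM TCEP. Glutathione donor and nickel acceptor beads; 1 h, 37 °C, dark.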
D2 ag = Beta-Arrestin HTS for Positive Allosteric Modulators of the Human D2 Dopamine Receptor: Agonists. activation, % (no concentration beside the values). DiscoveRx PathHunter D2 beta-arrestin, luminescence, 90 min; 100% = 57 uM dopamine signal. actives 0.084% (n = 360,000). D(2) dopamine receptor (Homo sapiens), P14416; in the data active = activation above about 40%; inconclusive = about 15% to 40%; inactive = below about 15%; also: compound concentration not given in the record; the text of the record calls up to 30% inactive
Target sequence (P14416 whole entry, looked up): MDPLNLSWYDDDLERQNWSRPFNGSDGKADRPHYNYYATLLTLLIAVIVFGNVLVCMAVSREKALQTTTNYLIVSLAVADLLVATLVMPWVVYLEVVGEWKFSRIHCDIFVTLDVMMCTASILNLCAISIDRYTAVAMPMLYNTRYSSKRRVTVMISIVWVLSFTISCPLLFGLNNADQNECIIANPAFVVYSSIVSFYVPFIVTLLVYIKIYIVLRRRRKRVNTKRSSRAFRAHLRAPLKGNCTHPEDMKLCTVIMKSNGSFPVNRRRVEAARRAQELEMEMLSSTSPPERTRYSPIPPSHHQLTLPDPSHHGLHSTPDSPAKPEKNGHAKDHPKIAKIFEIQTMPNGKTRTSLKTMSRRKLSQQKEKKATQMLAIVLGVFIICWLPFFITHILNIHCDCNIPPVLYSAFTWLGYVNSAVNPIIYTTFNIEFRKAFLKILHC
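Agonist mode: compounds alone added to overnight-plated D2 PathHunter cells for 90 min at 37 C, with 57 uM final dopamine (EC100) defining full response. Beta-arrestin recruitment detected by chemiluminescent reagent, read after 1 h at ambient temperature.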
CtBP-E1A inh = qHTS Assay for Inhibitors of the CtBP/E1A Interaction | activity change, % (test concentration not listed) | AID 651724, 2012 | AlphaScreen GST-E1A/His-CtBP binding, 1536-well; stronger effect = lower value; control for the full effect not named in the record | CtBP / adenovirus E1A interaction (AlphaScreen) | actives 0.49% (n = 340,000); in the data active means activity change below about -65%; inconclusive means about -30% to -65%; inactive means above about -30%; also: % is scaled to controls: 0 for no effect and ±100 for the full control effect; compound concentration not given in the record
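GST-E1A and His-tagged CtBP (125 nM each as 5X stock) were preincubated with pin-transferred compound for 2 h at 37 °C in the dark, then glutathione donor and nickel acceptor beads were added for 1 h before AlphaScreen reading.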
Active calls of the source: *; ? = inconclusive; . = not tested or not shown; [ ] = another dose, or the depositor's remark.

SMILES | TRPML1 inh | PINK1 expr mod | TRPML1 agonist | Six1-Eya2 blk | D2 ag | CtBP-E1A inh
CCOc1ccc(S(=O)(=O)N(C)CCO)cc1-c1nc2c(C(C)(C)C)nn(C)c2c(=O)[nH]1 | -3.6 | 1.8% | -0.4 | -11.2 | -3.2 | 32.9
Cc1ccc(OCC(=O)O/N=C(\N)Cc2ccc([N+](=O)[O-])cc2)cc1C | 4.0 | -1.2% | -0.4 | -20.4 | -0.9 | 3.1
CCS(=O)(=O)N1Cc2cc(C(=O)NCCOC)nc(-c3cccc(-c4ccncc4)c3)c2[C@H]1CCO | . | 0.5% | -0.2 | 3.8 | . | 5.6
Cc1ccc2[nH]c3c(=O)n(CCCN4CCN(C)CC4)cnc3c2c1 | 3.3 | -0.4% | 0.1 | 18.6 | -3.7 | 3.0
CCN(C(=O)c1cc2c(=O)[nH]c3ccc(C)cc3c2s1)c1ccccc1F | -8.2 | 6.8% | 0.1 | 0.6 | -2.1 | -2.8
CCC(c1nnc(SCC(=O)NCCc2ccc(Cl)cc2Cl)o1)N(C)C (configuration not stated) | 17.9 | 1.6% | 0.1 | 0.7 | -1.3 | 0.4
O=C(Cc1c(Cl)cccc1Cl)NCCc1ccc(Cl)cc1 | -0.9 | 4.7% | -0.1 | -3.4 | -5.0 | 8.8
Cc1ccc(C2=NNC(C(O)C(O)C(O)C(C)O)S2)cc1 (configuration not stated) | 5.7 | 0.0% | 0.6 | -0.9 | -0.4 | 4.3
COc1ccc(OC)c(S(=O)(=O)N2CCCC(N3CCN(c4ccccc4)CC3)C2)c1 (configuration not stated) | -14.3 | -0.1% | -0.8 | -14.4 | -3.6 | 3.7
Cc1ccc(NC(=O)C2CCN(S(=O)(=O)c3ccc(C(C)(C)C)cc3)CC2)cc1S(=O)(=O)N1CCOCC1 | -0.5 | 0.9% | -0.3 | -1.3 | 6.4 | .
O=C(CN(c1ccc(F)cc1)S(=O)(=O)c1ccc2c(c1)OCCO2)NCc1ccncc1 | -7.6 | -0.3% | 0.3 | 1.3 | 1.4 | -11.9
Cc1cc(C)n(-c2nnc(C)n2/N=C/c2ccco2)n1 | -8.1 | -1.8% | 0.4 | 8.9 | 0.4 | -13.2
COc1ccc(C(=O)NC(C(=O)NCC2CCCO2)C(C)C)cc1 (configuration not stated) | 17.0 | 2.2% | 0.0 | 6.4 | 3.8 | 3.1
Cc1cc(Nc2ccccc2)c2c([N+](=O)[O-])c(C)cc(C)c2n1 | 17.2 | 12.9% | -1.3 | ? | -1.7 | ?
COC(=O)CNC(=O)Cn1c(=O)n(Cc2ccc(F)cc2)c(=O)c2sccc21 | -20.1 | 7.0% | -0.2 | 2.1 | -2.4 | -4.4
Cc1ccc(C)c(NC(=O)CN(C)C(=O)c2sccc2C)c1 | 15.5 | -1.0% | 1.4 | 8.2 | 0.2 | -14.6
O=C(CN1CCCC1)NC12CC3CC(CC(C3)C1)C2 | 26.7 | -1.1% | 2.0 | 7.6 | -1.2 | 1.6
Cc1ccc(CNC(=O)CCCc2nnc3n(CC(C)C)c(=O)c4sccc4n23)cc1 | -2.7 | -0.5% | -0.7 | . | . | .
COc1ccc(-c2nc3c(C#N)c[nH]n3c2NC2CCCC2)c(OC)c1 | 43.7 | 2.1% | -0.1 | . | . | .
O=[N+]([O-])c1ccc(COc2ccc(-c3[nH]ncc3-c3ccc(Cl)cc3)c(O)c2)cc1 | 9.0 | -2.6% | 0.9 | -12.6 | 11.3 | 1.4
Cc1cc(C)cc(OCCOCCn2c(-c3ccc(Cl)cc3)nc3ccccc3c2=O)c1 | -14.8 | 1.0% | -0.1 | . | . | .
CC(Nc1n[nH]c(=O)[nH]c1=O)C(=O)N/N=C/c1ccccc1 (configuration not stated) | 6.9 | -0.2% | -0.4 | 3.7 | -5.0 | .
O=C(NC1CCCCC1)C1CCN(S(=O)(=O)c2cccc3cccnc23)CC1 | -10.5 | -0.6% | -0.6 | 7.3 | -8.1 | 1.6
COCCn1c(NCc2ccccc2)nc2c1c(=O)[nH]c(=O)n2C | -9.4 | 1.3% | -0.5 | -4.9 | -2.1 | 9.5
NC(=O)c1ccccc1NC(=O)/C=C/c1ccc(Cl)cc1 | 6.3 | 17.5%[38.3 µM] | 1.1 | -1.5 | 1.8 | 5.1
N#Cc1ncc(C(F)(F)F)cc1Sc1ccccc1N | 20.5 | 3.2% | 0.3 | -8.6 | -3.0 | -1.0
O=[N+]([O-])c1ccc(N=Nc2ccc(O)cc2O)cc1 | -16.5 | ? | 0.5 | 4.0 | 4.1 | 5.0
COc1ccc(S(=O)(=O)N2CCC(C(=O)NCCC(=O)NC3CC3)CC2)cc1 | -0.7 | 0.4% | -0.6 | 2.9 | 0.5 | -13.9
COc1cc(NC(=O)COC(=O)c2ccccc2SCC(=O)N2CCCC2)cc(OC)c1 | 3.1 | 0.3% | 0.3 | -6.6 | -4.7 | 1.8
CC(C)CN(C(=O)COC(=O)C1CC1)c1c(N)n(Cc2ccccc2)c(=O)[nH]c1=O | -8.9 | 4.3% | -0.7 | 3.5 | -3.7 | 1.7
Cc1ccc(NC(=O)CSCC(=O)N(C)CCOc2ccc(Cl)cc2)cc1 | -12.7 | 2.1% | 1.2 | -2.1 | -2.6 | -2.6
COc1ccc(CCN2CC(C(=O)NCc3ccco3)CC2=O)cc1OC (configuration not stated) | -14.0 | -0.6% | 1.9 | 3.6 | 1.4 | -7.4
O=C(CCCn1c(SCC(=O)NC2CCCCC2)nc2ccccc2c1=O)NCC1CCCO1 (configuration not stated) | -11.6 | 0.9% | -0.5 | 1.9 | -2.4 | 5.5
CCOC(=O)c1c(NC(=O)COC(=O)CNC(=O)c2ccc(Cl)cc2Cl)sc(C(=O)N(C)C)c1C | -9.3 | -0.4% | -0.1 | -21.0 | -0.9 | 4.9
CCCC(C)(C)NC(=O)CCCCC(=O)NC(C)(C)CCC | -16.6 | -0.2% | 0.3 | 6.7 | -3.9 | -4.4
O=C(O)C1CN(c2ncccc2[N+](=O)[O-])C1 | 8.4 | 1.8% | -0.6 | -0.8 | -3.1 | 9.1
Cc1ccc(OC(C)C(=O)O)cc1C (configuration not stated) | -3.4 | -0.3% | -0.2 | 1.0 | 0.1 | 3.6
COc1ccc(CNC(=O)CC[C@H]2O[C@@H](n3cnc4c(NC(=O)c5ccccc5)ncnc43)[C@H](O)[C@@H]2O)cc1 | . | 0.0% | -0.2 | 2.0 | -1.3 | 4.1
COc1ccccc1-c1oc2ccccc2c1-c1ccccc1OC | 3.2 | 4.4% | 2.1 | 25.0 | -4.7 | 15.8
O=C(O)CC1(C(=O)O)CC2C=CC1C2 (configuration not stated) | -3.7 | 0.4% | 0.0 | 0.4 | -3.4 | -1.8

Brought forward from above: 2 compounds, followed by the next part.
SMILES | TRPML1 inh | PINK1 expr mod | TRPML1 agonist | Six1-Eya2 blk | D2 ag | CtBP-E1A inh
COc1ccccc1-c1oc2ccccc2c1-c1ccccc1OC | 3.2 | 4.4% | 2.1 | 25.0 | -4.7 | 15.8
O=C(O)CC1(C(=O)O)CC2C=CC1C2 (configuration not stated) | -3.7 | 0.4% | 0.0 | 0.4 | -3.4 | -1.8
COc1cc(/C=N/Nc2ccc(S(N)(=O)=O)cc2[N+](=O)[O-])cc(OC)c1O | -0.9 | 0.5% | ? | ? | 0.5 | .
Cc1ccc(-n2ccnc(SCC(=O)NCCc3ccccc3)c2=O)cc1F | -0.9 | -0.8% | -0.7 | -3.3 | -4.3 | 0.1
COc1ccc(NS(=O)(=O)c2csc(C(=O)Nc3ccccc3)c2)cc1 | 25.8 | 0.8% | 2.3 | -13.8 | -1.9 | -16.8
Cc1[nH]c2ccc(C(=O)OC(C)C(=O)NC3CCCCC3C)cc2c1C (configuration not stated) | 16.8 | 17.9% | 0.8 | -4.0 | -2.4 | 6.2
C/C=C/c1ccc(OCC(O)CN(C)Cc2ccc(SC)cc2)c(OC)c1 (configuration not stated) | 5.3 | -1.6% | 1.7 | -18.6 | -1.7 | .
O=C(CSc1nc(-c2ccccc2)cn1-c1ccccc1)Nc1ccccc1 | -0.4 | 0.7% | -0.5 | . | . | .
O=C(O)c1ccc(-c2ccc(Cl)cc2Cl)o1 | -1.4 | -2.4% | -0.2 | 1.8 | -2.6 | -14.8
CCOC(=O)CS(=O)(=O)c1nc(-c2ccccc2)cc(C(F)(F)F)n1 | -2.0 | -3.0% | 0.6 | 3.3 | -12.4 | 9.5
Cc1ccc(/C=N/N2CCN(Cc3ccccc3)CC2)cc1 | -1.2 | 0.2% | -0.7 | -24.7 | -4.5 | ?
O=C(CN1C(=O)c2cccc3cccc(c23)C1=O)N1CCCCC1 | 6.8 | 1.8% | -0.4 | 2.2 | -1.9 | 0.4
O=C(CN1C(=O)CCSc2ccccc21)Nc1ccc2c(c1)OCCO2 | 13.6 | -4.6%[38.3 µM] | 2.0 | -0.8 | -1.1 | -2.3
O=C(CSCc1ccc(Cl)cc1)N1CCN(Cc2ccc3c(c2)OCO3)CC1 | 4.1 | -2.0% | -0.6 | -16.8 | -1.4 | -3.9
O=C(NCc1ccc2c(c1)OCO2)c1ccc(S(=O)(=O)C(F)F)cc1 | -7.7 | -1.2% | -0.7 | 6.7 | -4.6 | 1.6
Nc1nc(N2CCN(C(=O)c3ccco3)CC2)nc2ccccc12 | 7.3 | 2.9% | 1.1 | 1.0 | -1.2 | -1.7
O=C1CC(c2cccc(F)c2)c2c(c3ccccc3[nH]c2=O)O1 (configuration not stated) | -8.0 | 1.0% | 0.2 | 7.7 | 2.9 | -15.1
C=C(C)CNC(=S)Nc1nc2c(cc1C(=O)OCC)CCCC2 | -3.2 | 1.4% | -0.1 | 3.4 | -3.8 | -4.2
Cc1ccc(S(=O)(=O)Cn2nnnc2C(CC(C)C)N2CCN(C3CCCC3)CC2)cc1 (configuration not stated) | 18.8 | 3.3% | 0.2 | 6.1 | -6.8 | 21.5
O=C(O)c1cccc(NC2=Nc3cccc4cccc2c34)c1 | -11.1 | -0.1% | -0.7 | 0.2 | -0.3 | -0.8
C=CCN(Cc1ccc(Cl)s1)C(=O)c1ccc(F)c(S(=O)(=O)N2CCOCC2)c1 | 2.2 | 0.8% | 0.7 | 1.3 | 0.7 | -2.7
Cn1c(CNC(=O)c2ccco2)nnc1SCC(=O)N1CCN(c2ccccc2)CC1 | 4.3 | 2.1% | 0.0 | 41.9 | -1.7 | 9.8
CCCCN(CC)C(=O)c1cc2cc3ccc(Cl)cc3nc2o1 | 38.6 | 2.2% | 0.2 | 4.5 | 4.4 | .

An unsorted share of the library; about 1% have a hit in one of these screens.
